# PKD1 inh: blocks activity of human protein kinase D1; AID 797; Q15139; PKD1 kinase fluorescence polarization assay; inhibition, %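 (about 10 µM by stock and volumes)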; hit rate 0.056% among 200,000;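 active = inhibition of 50% or more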;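 also: controls were vehicle for no effect and a reference inhibitor for full effect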
# Target sequence (Q15139 whole entry, looked up): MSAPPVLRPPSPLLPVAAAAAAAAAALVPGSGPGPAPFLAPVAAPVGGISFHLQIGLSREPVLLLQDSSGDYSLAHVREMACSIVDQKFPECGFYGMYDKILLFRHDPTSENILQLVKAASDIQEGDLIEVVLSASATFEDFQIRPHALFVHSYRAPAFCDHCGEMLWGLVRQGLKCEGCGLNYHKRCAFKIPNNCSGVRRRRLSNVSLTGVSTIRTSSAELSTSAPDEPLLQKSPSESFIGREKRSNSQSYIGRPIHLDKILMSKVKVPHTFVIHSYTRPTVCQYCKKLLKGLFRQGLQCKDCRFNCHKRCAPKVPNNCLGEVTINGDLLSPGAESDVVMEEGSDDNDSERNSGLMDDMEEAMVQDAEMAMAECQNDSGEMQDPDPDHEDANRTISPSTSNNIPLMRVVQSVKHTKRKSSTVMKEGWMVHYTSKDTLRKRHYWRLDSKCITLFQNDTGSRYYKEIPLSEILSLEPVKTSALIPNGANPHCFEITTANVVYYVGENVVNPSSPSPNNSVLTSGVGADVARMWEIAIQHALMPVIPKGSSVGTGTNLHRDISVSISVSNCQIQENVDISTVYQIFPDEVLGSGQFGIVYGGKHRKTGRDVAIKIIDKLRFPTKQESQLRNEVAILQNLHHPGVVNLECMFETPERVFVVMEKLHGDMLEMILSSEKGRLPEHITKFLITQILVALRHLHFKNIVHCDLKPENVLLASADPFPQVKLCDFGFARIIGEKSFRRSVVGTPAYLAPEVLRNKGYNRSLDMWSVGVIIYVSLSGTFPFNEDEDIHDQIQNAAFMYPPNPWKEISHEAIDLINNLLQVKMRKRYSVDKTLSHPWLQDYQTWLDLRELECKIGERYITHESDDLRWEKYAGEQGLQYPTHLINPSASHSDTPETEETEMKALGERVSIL
# Insulin prom inh: TRM-6 insulin promoter activity inhibition; inhibition, % at 2 µM; TRM-6 cells (human fetal islet line), insulin promoter-eGFP reporter, imaging; reporter expression induced with tamoxifen; AID 1273; hit rate 0.9% among 130,000;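 active = inhibition above the mean plus 3 SD, with well images judged a real hit on visual review, cut at about 60% in these data, passing the limit was not always enough; inconclusive = inhibition over the cutoff but images rejected on review; inactive = inhibition not above the cutoff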
# HSV augment: increases HSV replication in cells; HSV replication augmentation in cells, fold increase; maximum fold increase; hit rate 0.005% among 220,000;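 active = peak rise of 1.5-fold or more in the series; inconclusive = self-fluorescent or not available for retest; tested in PC3 cells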;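 also: first round at 10 µM; read as green reporter fluorescence; hits show the peak of a series up to 25 µM; 1 = signal of infected wells without compound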
# GALR2 ag: agonists of human galanin receptor 2 (GALR2); activation, %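 (tested at 5 µM)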; O43603; hit rate 0.48% among 140,000; GALR2-expressing cells, agonist activation read-out;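 active = above mean plus 3 SD of all compounds, about 5% in these data, not always enough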;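 also: 0% = vehicle buffer wells and 100% = reference agonist at full effect; tested in CHO reporter cells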
# RGS16-Gao: regulators of human RGS16-Galphao interaction; O15492+P09471; bead-based flow cytometry RGS16-Galphao binding, fluorescence; actives lie on both sides; binding response (% of control), % at 10 µM; hit rate 0.38% among 220,000;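 active = below 25% or above 175%, edge rows of some plates excepted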;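 also: Galphao activated by GDP with aluminum fluoride before binding; 100% = wells without compound and 0% = beads without RGS; some results beyond the cut were filed as inactive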
# Insulin prom inh cell count: also measured in Insulin prom inh; calls as there; normalized cell count, %; measured here: cell count, toxicity; reference of the scale not given here;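 cells exposed to compound for 48 h; stained nuclei by imaging scaled within each plate; lower means fewer cells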
# HSV augment primary fold: recorded beside HSV augment, whose call it bears; fold increase; compound at 10 µM; measured here: primary screen fold increase 10 uM; tested in PC3 cells;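 GFP signal in the first replicate; 1 = infected wells without compound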
# * hit, by the source's call; i = inactive; u = inconclusive; x = no result given.
SMILES,PKD1 inh,Insulin prom inh,Insulin prom inh cell count,HSV augment,HSV augment primary fold,GALR2 ag,RGS16-Gao
COC(=O)c1cccc(N=Cc2c(O)n(Cc3ccc(F)cc3)c(=O)[nH]c2=O)c1,x,x,x,i,0.99,x,98
C=CCn1c(O)c(C=Nc2ccc(N(CC)CC)cc2)c(=O)[nH]c1=O,2,36,93,i,1.1,0.0,85
CCOC(=O)c1c(-n2c(C)cc(C=C3C(=O)NC(=S)NC3=O)c2C)sc2c1CCCC2,-12,11,119,i,1.3,-2.6,94
O=C(Nc1nccs1)C(Cl)(Cl)Cl,-3,x,x,i,1,x,103
CC(C)c1ccc(C2N3CCCN23)cc1 (stereo not drawn),-6,x,x,i,1,0.7,105
CCCCn1c(O)c(C(CC)=NCc2ccc3c(c2)OCO3)c(=O)[nH]c1=O,8,50,159,i,1,-0.8,104
Cc1cc(C)[n+](C2C3CC4CC(C3)CC2C4)o1 (stereo not drawn),-1,-14,75,i,0.98,-1.2,146
Cc1nc(Cl)sc1C(=O)Nc1ccc2ccccc2c1,18,17,114,i,0.91,-0.8,98
Clc1cccc(N2CCNCC2)c1Cl,-6,-50,146,i,0.93,-1.1,97
O=C(c1ccccc1)c1cn(CC(=O)N2CCOCC2)c2ccccc12,7,25,118,x,x,-1.5,108
CCOP(=S)(OCC)SCC(=O)NC(C(=O)O)C(C)C (stereo not drawn),-3,-23,80,i,1.2,-1.0,105
COc1ccc(C(Nc2ccccc2)P(=O)(Oc2ccccc2)Oc2ccccc2)cc1 (stereo not drawn),-8,x,x,i,1.1,-0.8,105
c1cncc(CNC2CCCC2)c1,-2,x,x,i,0.99,x,106
CN(C)C(=O)Oc1ccc(Br)c2ccccc12,-5,-65,86,i,0.79,x,102
CN(C=O)CP(=O)(O)CN(C)C=O,-26,45,110,i,1.1,-1.4,98
CCCCNC(=O)c1c(N)n(Cc2ccc3c(c2)OCO3)c2nc3ccccc3nc12,2,-51,110,i,0.92,6.8*,105
CC(C)(C)OC(=O)c1c(N)n(Cc2ccco2)c2nc3ccccc3nc12,-1,-43,110,u,x,7.3,98
O=c1c2ccccc2nc(CSc2ncnc3nc[nH]c23)n1-c1ccc(Cl)c(Cl)c1,2,x,x,i,1,-1.6,103
Nc1ccncc1Cl,8,x,x,i,0.96,x,100
COc1ccc2nc3oc(C(=O)N4CCC5(CC4)OCCO5)cc3cc2c1,-6,67,39,i,1,x,108
CCCCn1c(O)c(C(C)=Nc2ccc(OCC)cc2)c(=O)[nH]c1=O,-2,55,90,i,0.91,-1.9,103
COc1ccc(C2=CC(c3ccc(OC)c(OC)c3)c3c(c4ccccc4oc3=O)O2)cc1OC (stereo not drawn),x,x,x,i,0.7,x,101
O=C1CC(=O)N(Cc2ccccc2)C(=O)N1CCCCCCN1C(=O)CC(=O)N(Cc2ccccc2)C1=O,x,x,x,i,1.3,x,100
N[C@@H](Cc1c[nH]c2ccccc12)c1nnc(SCc2ccc(Cl)cc2)o1,-2,-27,99,i,0.9,-1.7,101
CC(=NCc1cccnc1)c1c(O)n(-c2ccccc2)c(=O)[nH]c1=O,-1,-24,156,i,0.84,-3.1,101
Nc1c(C(=O)NCc2ccco2)c2nc3ccccc3nc2n1Cc1ccccc1,-7,-43,91,i,1,5.1*,101
CCn1cc(C(=O)N2CCOCC2)c2ccccc21,1,x,x,i,1,x,101
CN(C)CCCN=Cc1c(O)n(Cc2ccco2)c(=O)[nH]c1=O,2,x,x,i,0.98,x,90
CCC(=NCC1CCCO1)c1c(O)[nH]c(=O)[nH]c1=O (stereo not drawn),-5,21,133,i,0.9,-0.5,104
O=C(CN1CCCCC1)c1ccccc1F,-6,23,94,i,0.87,x,103

# Exported with two lines to a compound: four of the compounds above.
# Sequence of screens: PKD1 inh | Insulin prom inh | Insulin prom inh cell count | HSV augment | HSV augment primary fold | GALR2 ag | RGS16-Gao
- CC(C)(C)OC(=O)c1c(N)n(Cc2ccco2)c2nc3ccccc3nc12
 : -1 | -43 | 110 | u | x | 7.3 | 98
- O=c1c2ccccc2nc(CSc2ncnc3nc[nH]c23)n1-c1ccc(Cl)c(Cl)c1
 : 2 | x | x | i | 1 | -1.6 | 103
- Nc1ccncc1Cl
 : 8 | x | x | i | 0.96 | x | 100
- COc1ccc2nc3oc(C(=O)N4CCC5(CC4)OCCO5)cc3cc2c1
 : -6 | 67 | 39 | i | 1 | x | 108

# Next part.
SMILES,PKD1 inh,Insulin prom inh,Insulin prom inh cell count,HSV augment,HSV augment primary fold,GALR2 ag,RGS16-Gao
Cc1cc2ccccc2c(=O)n1CC(=O)NCC(=O)N1CCC2(CC1)OCCO2,-2,7,71,i,0.95,x,51
O=C(C(Cc1ccccc1)NS(=O)(=O)c1ccc(F)cc1)N1CCC2(CC1)OCCO2 (stereo not drawn),2,-61,94,i,0.94,0.4,91
CCOc1ccc(NC(=O)c2ccc(NC(=O)COC(=O)Cc3ccccc3)cc2)cc1,6,3,57,i,0.93,-0.8,86
COCCNC(=O)c1c(N)n(CCC(C)C)c2nc3ccccc3nc12,-8,-28,92,i,0.86,16*,102
S=c1[nH]c2ccccc2[nH]1,-4,29,100,i,0.97,x,105
N#Cc1ccc(Cn2cc(C(=O)c3ccco3)c3ccccc32)cc1,-6,-31,114,i,0.68,-0.6,98
O=C1NC(=O)N(CCc2ccc(F)cc2)C(=O)/C1=C/c1ccco1,2,-5,83,x,x,x,64
CCOP(=O)(OCC)C(NS(=O)(=O)c1ccccc1)C(Cl)(Cl)Cl (stereo not drawn),-6,-31,133,i,0.86,x,97
C=C1C2C[C@H](O)C(C)(C)[C@@]2(O)[C@H](O)C[C@]23C[C@@](C)(O)[C@H](CC[C@H]12)[C@H]3OC(C)=O (stereo partly drawn),-3,-15,76,i,0.7,-1.4,159
C[N+]1(CC(COCc2ccccc2)OC(=O)Cc2ccccc2)CCOCC1 (stereo not drawn),-2,31,113,i,1,-0.9,108
Cc1ccc(-n2c(O)c(/C=N/NC(=O)c3ccncc3)c(=O)[nH]c2=O)cc1C,0,12,156,i,0.98,-0.3,98
CCCc1nc2ccccc2c(=O)n1-c1cccc(OC)c1,0,x,x,i,0.95,-0.5,105
COc1ccc2c(c1)CC1(CN2C)C(=O)NC(=O)N(c2ccc(C)cc2)C1=O (stereo not drawn),-2,46,92,x,x,-3.7,98
Cc1nn(C)cc1/C=C1/CC2C3CC=C4CC(O)CCC4(C)C3CCC2(C)C1=O (stereo not drawn),-6,-144,98,i,1,-2.8,x
O=c1c2ccccc2nc(CNc2ccccc2)n1-c1ccccc1,x,x,x,i,0.99,x,94
CNC(=O)O/N=C(\N)Cc1csc2ccc(Cl)cc12,x,x,x,i,0.89,x,110
O=C(NCCCN1CCOCC1)C(Cl)(Cl)Cl,-4,-19,111,i,0.92,0.4,111
CC(C)(C#CCCCCC#CC(C)(C)[N+](C)(C)C)[N+](C)(C)C,x,x,x,i,0.63,x,101
O=C1NC(=O)C(=C/C=C/c2coc3ccc(Br)cc3c2=O)C(=O)N1,x,x,x,i,1.2,x,99
O=C(Cn1ccc2ccccc2c1=O)NCC(=O)N1CCC2(CC1)OCCO2,-7,x,x,i,1,x,101
C=CCN1C(=O)C2(C(C(=O)OCC)=C(N)Oc3ccccc32)C2=C1CCCC2=O (stereo not drawn),1,-7,109,i,0.92,-4.0,100
Cc1ccc(N2C(=O)NC(=O)C(CCc3ccccn3)(Cc3cccc(Cl)c3Cl)C2=O)cc1 (stereo not drawn),-5,x,x,i,0.85,-1.2,97
N/C(=N\N=C\c1ccc(O)cc1O)N[N+](=O)[O-],1,x,x,i,0.89,-1.2,-23*
CC1(C)CSC(=NCc2ccccc2)N1,0,x,x,i,0.91,x,103
Cc1ccc(S(=O)(=O)N2CC3CC(C2)c2cccc(=O)n2C3)cc1 (stereo not drawn),-4,-29,249,i,1,-2.2,108
Cc1[nH]c2ccccc2c1CCCNC1CCCCC1,2,0,128,i,0.92,-0.8,102
CCCOP(=O)(OCCC)C(NC(=O)c1cc(OC)c(OC)c(OC)c1)c1ccccc1 (stereo not drawn),-4,17,150,i,0.89,x,104
CCN(CC)c1ccc(/C=C2/C(=O)NC(=O)N(Cc3ccco3)C2=O)cc1,1,x,x,u,x,-1.0,76
COc1cc(CNCCc2ccc3c(c2)OCO3)cc(OC)c1OC,0,-54,97,i,0.99,x,103
CCCCn1c(O)c(C(CC)=Nc2ccc(OC)cc2OC)c(=O)[nH]c1=O,-6,19,87,i,0.68,0.6,75

# Shown with bars between the fields: entries from further up
Molecule | PKD1 inh | Insulin prom inh | Insulin prom inh cell count | HSV augment | HSV augment primary fold | GALR2 ag | RGS16-Gao
COc1cc(CNCCc2ccc3c(c2)OCO3)cc(OC)c1OC | 0 | -54 | 97 | i | 0.99 | x | 103
O=C(Cn1ccc2ccccc2c1=O)NCC(=O)N1CCC2(CC1)OCCO2 | -7 | x | x | i | 1 | x | 101

# More compounds follow:
SMILES,PKD1 inh,Insulin prom inh,Insulin prom inh cell count,HSV augment,HSV augment primary fold,GALR2 ag,RGS16-Gao
COC(=O)C(O)(c1c(C)[nH]n(-c2ccccc2)c1=O)C(F)(F)F (stereo not drawn),-10,-25,161,i,0.95,-2.1,91
CCCCn1c(=O)c(C(=O)Nc2ccccc2)c(O)c2ccccc21,4,x,x,i,1.1,x,102
O=C1NC(=O)C(CCc2ccncc2)(CCc2ccncc2)C(=O)N1Cc1ccc(F)cc1,3,8,125,i,0.87,x,100
COc1ccccc1OCC#CCN1CCCC1,0,x,x,i,0.96,x,93
O=C(CNC(=O)c1cccc(Cl)c1)Nc1ccc(Br)cc1C(=O)c1ccccc1,-9,16,110,i,0.81,-2.1,106
Cc1cc(Cl)ccc1OCC(=O)N1CCN(C)CC1,6,x,x,i,0.91,-0.1,102
CCOC(=O)c1c(NS(=O)(=O)c2ccccc2)n(CCCOC)c2nc3ccccc3nc12,-10,36,115,i,1.2,-1.3,97
O=C1NC(=S)N(c2ccccc2F)C(=O)/C1=C\c1cccs1,-4,x,x,i,0.94,-1.6,99
O=C(NC1(C(F)(F)F)Oc2ccccc2O1)N1CCC2(CC1)OCCO2,7,-120,73,i,0.73,-0.9,58
COC(=O)c1cc(C(O)(C(=O)OC)C(F)(F)F)c(/N=C/N(C)C)s1 (stereo not drawn),0,x,x,i,1.1,0.0,101
O=C(O)CC1OCC=C2CN3CCC45C6=CC(=O)C(=O)C([N+](=O)[O-])=C6NC4C1C2CC35 (stereo not drawn),x,x,x,i,0.98,x,47
COc1ccc(OC)c(N2C(=O)NC(=O)/C(=C\c3ccc([N+](=O)[O-])s3)C2=O)c1,-2,-42,47,i,1.1,x,59
Fc1ccc(Cn2nnnc2C(c2ccc(Cl)cc2)N2CC=C(c3ccc(F)cc3)CC2)cc1 (stereo not drawn),-8,-11,131,i,1.1,-0.6,94
Cc1ccc(CN2CCCC(C(=O)c3ccc4c(c3)OCO4)C2)cc1C (stereo not drawn),x,x,x,i,1,x,104
CCCC[N+]12CCC(CC1)C(Cc1ccccc1)C2 (stereo not drawn),x,x,x,i,0.95,x,96
CCOc1ccc(N2C(=O)NC(=O)/C(=C\c3ccc(N4CCOCC4)cc3C)C2=O)cc1,-6,19,123,i,1,x,108
Cn1c(O)c(C=NC2CC3CCC2(C)C3(C)C)c(=O)[nH]c1=O (stereo not drawn),-9,-5,108,i,0.89,-2.0,100
O=C(c1ccc2c(c1)ncn2C1CCCCCC1)N1CCC2(CC1)OCCO2,10,x,x,i,1,-0.9,97
O=c1[nH]c(=S)n(Cc2ccc(F)cc2)c(O)c1/C=N/N1CCCCCC1,-59,x,x,i,1.1,-1.8,99
O=C1NC(=O)C(=Cc2ccc(SC3CCCCC3)o2)C(=O)N1,-1,-45,122,i,0.76,x,90
O=C(c1ccccc1)c1ccc(N=Nc2c(O)[nH]c(=O)[nH]c2=O)cc1,5,x,x,i,0.83,x,103
CC(C)(C)NC(=O)Cn1cc(C(=O)c2ccccc2F)c2ccccc21,-2,-107,82,i,1,-2.3,98
CCCC12CN3CCN(CC(C3)/C1=N\NC(=O)c1ccncc1)C2,-1,x,x,i,0.99,x,101
CCN(CC)P(=O)(NC(=O)c1cccn1C)N(CC)CC,-6,19,90,i,0.89,x,105
COc1ccc(CC2C(=O)NC(=O)NC2=O)c(OC)c1,-2,44,148,i,1,0.0,64
COc1ccc(CN2C(=O)NC(=O)/C(=C/c3ccc(OC)c(OC)c3OC)C2=O)cc1,x,x,x,i,1,x,90
CC/C(=N\Nc1cccc2ccccc12)c1c(O)[nH]c(=O)[nH]c1=O,6,x,x,i,1.1,-0.3,99
O=c1c2ccccc2nc(/C=C/c2ccc(O)cc2)n1-c1ccccc1O,x,x,x,u,x,x,106
CC(C)(C)c1ccc(C(=O)C2CCCN(Cc3ccon3)C2)cc1 (stereo not drawn),-4,x,x,i,1.1,x,99

# From PubChem

# Only part of the results is shown; count on the stated rates, not on these rows.
